CSC inhib: blocks cancer stem cells. cancer stem cell-like cells viability, luminescence. inhibition, % at 7.5 µM. hit rate 1.1% among 300,000;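 active = mean at 75% or more and at least half the replicates too; tested in HMLE shEcad cells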;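 also: 0% = median of negative and 100% = median of positive control wells; the first replicate is given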
HIV Env fusion: blocks HIV Env-driven cell-cell fusion; inhibition, % at 12.3 µM; AID 651610; hit rate 1.1% among 360,000; HeLa-JRFL Env/CEM21 cell fusion, luciferase;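 active = mean replicate inhibition score of at least 50 and every replicate individually at or above 50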;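 also: 0% = plate neutral controls and 100% = maraviroc near 300 nM; one replicate is shown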
eIF4H inh: inhibitors of RNA binding by human eIF4H; eIF4H fluorescence polarization binding assay; inhibition, % at 35 µM; hit rate 0.94% among 290,000; AID 2012;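 active = 50% or more with normal probe brightness, or confirmed in later tests; about a fifth of its hits are not listed in these tables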;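 also: calls also rest on retests at 20 µM and on dose response follow-up; 0% = protein and probe with vehicle and 100% = probe without protein; strong numbers were not always called active; many hits fall short of the cut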
Rce1 inhib: inhibitors of yeast Ras-converting enzyme; calls only; Q03530; hit rate 0.27% among 290,000; yeast membranes, quenched prenylated peptide cleavage fluorescence; AID 2563;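 active = fall in fluorescence gain of 50% or more versus controls, with final raw signal at or below 3038400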;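 also: plate controls were neutral control wells for no effect and wells lacking membranes for full effect; tested at 10 µM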
UUG fidelity: modulators of start codon recognition fidelity in yeast. AID 602363. S. cerevisiae UUG-firefly luciferase reporter, luminescence/redox ratio. hit rate 0.13% among 350,000. activity score, % at 18.7 µM;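 active = replicate mean at a twofold rise or more, about +100% in these data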;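 also: firefly luciferase made from a UUG start codon reports start codon fidelity; reporter light over untreated wells divided by growth signal over untreated wells; some hits fall short of that in this replicate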
MT1-MMP act inh: blocks activation of human MT1-MMP; HT1080 RFP-PRO-GFP cells, GFP/RFP ratio fluorescence, overnight; percent of plate control window, DMSO zero; GFP/RFP ratio change, % at 20 µM; hit rate 0.061% among 360,000; AID 651647;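 active = GFP/RFP ratio change of at least 30% with cell ATP level not reduced by more than half and red fluorescence within 50% of control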; also: strong numbers were not always called active
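Read-out: GFP/RFP fluorescence ratio; Test system: RFP-PRO-GFP reporter HT1080 cells; Compound dosing: single-point 20 µM compound, 1% DMSO; Times: overnight compound exposure at 37 °C.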
PABP polyA inh: PABP-poly(A) binding inhibition. P11940. PABP-poly(A) RNA binding, fluorescence polarization. AID 2014. hit rate 1% among 290,000. inhibition, % at 35 µM;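 active = 50% or more with normal probe brightness, or confirmed in later tests; about a fifth of its hits are not listed in these tables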;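 also: calls also rest on retests at 20 µM and on dose response follow-up; controls were probe without protein and protein plus probe with vehicle; some compounds called inactive have numbers as strong as hits; many hits fall short of the cut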
Target sequence (P11940 whole entry, looked up): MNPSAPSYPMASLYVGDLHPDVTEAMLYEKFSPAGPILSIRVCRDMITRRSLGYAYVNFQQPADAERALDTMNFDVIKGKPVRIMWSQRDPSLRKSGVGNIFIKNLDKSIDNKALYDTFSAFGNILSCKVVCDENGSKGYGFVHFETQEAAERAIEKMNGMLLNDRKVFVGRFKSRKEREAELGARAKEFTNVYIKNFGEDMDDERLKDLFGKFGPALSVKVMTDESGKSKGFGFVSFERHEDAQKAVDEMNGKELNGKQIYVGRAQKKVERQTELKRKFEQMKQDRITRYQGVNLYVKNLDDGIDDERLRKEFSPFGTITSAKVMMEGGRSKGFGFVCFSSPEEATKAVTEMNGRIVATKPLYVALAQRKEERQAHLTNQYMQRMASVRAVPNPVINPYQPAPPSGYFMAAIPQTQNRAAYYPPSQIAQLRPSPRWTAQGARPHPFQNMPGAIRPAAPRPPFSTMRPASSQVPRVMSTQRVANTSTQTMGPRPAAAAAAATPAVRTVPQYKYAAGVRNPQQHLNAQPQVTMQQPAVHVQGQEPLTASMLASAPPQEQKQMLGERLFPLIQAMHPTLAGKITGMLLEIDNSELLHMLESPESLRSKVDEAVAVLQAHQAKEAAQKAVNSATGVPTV
eIF4H inh retest: second read-out of eIF4H inh, no call of its own (marks repeat the call); inhibition, %; compound at 20 µM; confirmation average;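 mean of two retest wells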
PABP polyA inh retest: also measured in PABP polyA inh; calls as there; inhibition, %; compound at 20 µM; confirmation repeats;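 mean of two retest wells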
MT1-MMP act inh RFP: second read-out of MT1-MMP act inh, no call of its own (marks repeat the call); RFP signal change, %; measured here: RFP expression control read;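 0 = vehicle wells; hits needed this value within 50% of zero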
An asterisk follows results filed as active. Rows are unselected; overall some 2.9% were active at least once.

Screening Cc1n[nH]c(C)c1S(=O)(=O)N1CCCC(C(=O)NCc2ccccc2Cl)C1 (stereo unspecified) returned CSC inhib -9, eIF4H inh 7, Rce1 inhib inactive, UUG fidelity -2, MT1-MMP act inh -1, PABP polyA inh -1 and MT1-MMP act inh RFP -4.
For CCOC(=O)c1sc(NC(=S)NC(=O)c2ccccc2)c(C(=O)OCC)c1C the results were CSC inhib -6, HIV Env fusion 6, eIF4H inh -11, Rce1 inhib inactive, UUG fidelity -2, MT1-MMP act inh -2, PABP polyA inh 122, eIF4H inh retest -10, PABP polyA inh retest 8 and MT1-MMP act inh RFP -4.
For COc1ccc(NC2CCCN(C(=O)c3cc(C)nc4cc(F)ccc34)C2)cc1 (stereo unspecified) the results were CSC inhib -6, HIV Env fusion 29, eIF4H inh 3, Rce1 inhib inactive, UUG fidelity -14, MT1-MMP act inh 1, PABP polyA inh 11 and MT1-MMP act inh RFP 4.
`COc1ccccc1NC(=O)CCn1c(=O)c2cccn2c2ccccc21` gave CSC inhib -1, HIV Env fusion 7, eIF4H inh -13, Rce1 inhib inactive, UUG fidelity -2, MT1-MMP act inh -1, PABP polyA inh -4 and MT1-MMP act inh RFP 1.
CCN1CCN(c2ncnc3scc(-c4ccc(C)c(C)c4)c23)CC1 was read as CSC inhib -17, HIV Env fusion 25, eIF4H inh -2, Rce1 inhib inactive, UUG fidelity -8, MT1-MMP act inh -20, PABP polyA inh 0 and MT1-MMP act inh RFP -9.
Screening CC(C)(C)OC(=O)N1CCC(NC(=O)c2[nH]cnc2C(=O)Nc2cccc(Cl)c2)CC1 returned CSC inhib 66, HIV Env fusion 14, UUG fidelity -22, MT1-MMP act inh 1 and MT1-MMP act inh RFP -6.
`O=C(N/N=C/c1ccccc1C(=O)O)c1ccncc1` gave CSC inhib -1, HIV Env fusion 4, eIF4H inh -18, Rce1 inhib inactive, UUG fidelity -15, MT1-MMP act inh -2, PABP polyA inh -7 and MT1-MMP act inh RFP -1.
For CCOC(=O)C1(Cc2ccccc2)CCN(Cc2cc(OC)c3c(c2)OCO3)CC1 the results were CSC inhib 10, HIV Env fusion -3, eIF4H inh -3, Rce1 inhib inactive, UUG fidelity -7, MT1-MMP act inh -4, PABP polyA inh -9 and MT1-MMP act inh RFP 1.
CCOc1ccc(S(=O)(=O)Nc2ccccc2C(=O)Nc2ccccc2N2CCOCC2)cc1 was read as CSC inhib 2, eIF4H inh 1, Rce1 inhib inactive, UUG fidelity -5, MT1-MMP act inh -7, PABP polyA inh 12 and MT1-MMP act inh RFP -6.
`O=C(Nc1nccs1)c1cccc(S(=O)(=O)N2CCCCC2)c1` gave HIV Env fusion -40, eIF4H inh 0, Rce1 inhib inactive, UUG fidelity -16, MT1-MMP act inh 0, PABP polyA inh -3 and MT1-MMP act inh RFP -6.
Screening O=C(CSc1ccc2nnc(-c3ccccc3)n2n1)NCc1ccc2c(c1)OCO2 returned CSC inhib -7, HIV Env fusion -11, eIF4H inh -7, Rce1 inhib inactive, UUG fidelity -6, MT1-MMP act inh 0, PABP polyA inh 3 and MT1-MMP act inh RFP 3.
COc1ccc(-n2ncc3c(NC(C)C)ncnc32)cc1 was read as CSC inhib -8, eIF4H inh -5, UUG fidelity -46, MT1-MMP act inh -2, PABP polyA inh 6 and MT1-MMP act inh RFP -4.
For CCCC[n+]1c2ccccc2cc2ccccc21 the results were CSC inhib 40, HIV Env fusion -17, eIF4H inh 14, Rce1 inhib inactive, UUG fidelity -7, MT1-MMP act inh -5, PABP polyA inh 68*, eIF4H inh retest 15, PABP polyA inh retest 97* and MT1-MMP act inh RFP -5.
`CCSCCOC(=O)C1=C(C)N(C)C(=O)NC1c1cc(OC)ccc1OC` (stereo unspecified) gave CSC inhib -7, eIF4H inh -7, Rce1 inhib inactive, UUG fidelity -9, MT1-MMP act inh -6, PABP polyA inh 11 and MT1-MMP act inh RFP -7.
COC(=O)C1=C(C(=O)OC)[C@@H]2N(Cc3ccccc3)c3ccccc3[C@@]23C[C@@H](C(=O)OC)N(C(=O)NC2CCCCC2)C3=N1 was read as CSC inhib 8, HIV Env fusion 11, Rce1 inhib inactive, UUG fidelity -8, MT1-MMP act inh 0 and MT1-MMP act inh RFP 1.
For COc1cc(C(=O)OCC(=O)N2CCN(C(C)=O)CC2)ccc1OCC(C)C the results were CSC inhib -9, HIV Env fusion -7, Rce1 inhib inactive, UUG fidelity -10, MT1-MMP act inh 0 and MT1-MMP act inh RFP -1.
`Cc1cc(C(=O)OCC(=O)Nc2nccs2)c2ccccc2n1` gave CSC inhib 3, HIV Env fusion -25, eIF4H inh 43, Rce1 inhib inactive, UUG fidelity 19, MT1-MMP act inh -3, PABP polyA inh 13 and MT1-MMP act inh RFP 1.
Screening COc1ccc(OC)c(NC(=O)CCN2CC(C)CC(C)C2)c1 (stereo unspecified) returned CSC inhib -11, eIF4H inh -3, Rce1 inhib inactive, UUG fidelity -20, MT1-MMP act inh -1, PABP polyA inh -3 and MT1-MMP act inh RFP 2.
`COc1ccc2c(c1)C(=O)N(CCc1ccc(S(=O)(=O)NC(=O)NC3CCCCC3)cc1)C(=O)C2(C)C` gave CSC inhib -16, HIV Env fusion 15, eIF4H inh 5, Rce1 inhib inactive, UUG fidelity 2, MT1-MMP act inh 2, PABP polyA inh 4 and MT1-MMP act inh RFP -1.
Screening Cc1csc(NC(=O)c2cc[n+]([O-])cc2)n1 returned CSC inhib -3, HIV Env fusion 17, eIF4H inh -5, Rce1 inhib inactive, MT1-MMP act inh -3, PABP polyA inh 1 and MT1-MMP act inh RFP -2.
CCCCn1c(N)c(N(CCC(C)C)C(=O)c2cccc(N3C(=O)c4ccccc4C3=O)c2)c(=O)[nH]c1=O was read as CSC inhib 2, HIV Env fusion -27, Rce1 inhib inactive, UUG fidelity -6, MT1-MMP act inh 1 and MT1-MMP act inh RFP 0.
Screening Cc1ccc(S(=O)(=O)N2CCOCC2)cc1C(=O)OCC(=O)NCCc1ccccc1 returned CSC inhib 7, HIV Env fusion -32, UUG fidelity 19, MT1-MMP act inh 4 and MT1-MMP act inh RFP -3.
CC(Nc1ccc(Br)cc1)C(=O)Nc1cccc(S(=O)(=O)N2CCOCC2)c1 (stereo unspecified) was read as HIV Env fusion 9, UUG fidelity -8, MT1-MMP act inh 5 and MT1-MMP act inh RFP -6.
Screening COc1ccc(OC)c(/C=C/C(=O)N(C)CC(=O)Nc2ccc(C)cc2)c1 returned CSC inhib 11, HIV Env fusion -153, eIF4H inh 4, Rce1 inhib inactive, UUG fidelity -8, MT1-MMP act inh 0, PABP polyA inh 12 and MT1-MMP act inh RFP -4.
Screening COCc1c(C(=O)NC(C)c2ccc(S(N)(=O)=O)cc2)oc2ccccc12 (stereo unspecified) returned CSC inhib -3, HIV Env fusion 3, eIF4H inh -16, Rce1 inhib inactive, UUG fidelity 5, MT1-MMP act inh 0, PABP polyA inh 2 and MT1-MMP act inh RFP 3.
`CC/C(C)=N/N1C(=O)c2ccccc2NC1(C)CC` (stereo unspecified) gave CSC inhib 3, HIV Env fusion -68, eIF4H inh -14, Rce1 inhib inactive, UUG fidelity -36, MT1-MMP act inh 4, PABP polyA inh -13 and MT1-MMP act inh RFP 3.
For COc1ccc(C(=O)Nc2ccc(Cc3ccncc3)cc2)cc1Br the results were CSC inhib 31, HIV Env fusion 15, eIF4H inh -7, Rce1 inhib inactive, MT1-MMP act inh 1, PABP polyA inh 0 and MT1-MMP act inh RFP -1.
`COc1cc(C(=O)N/N=C/c2ccc(OC(=O)c3ccccc3)c(OC)c2)ccc1O` gave CSC inhib -8, HIV Env fusion -3, eIF4H inh 4, Rce1 inhib inactive, UUG fidelity -18, MT1-MMP act inh 3, PABP polyA inh -6 and MT1-MMP act inh RFP -1.
Screening CC(C)(C)OC(=O)NCc1ccc(CNC(=O)c2nc[nH]c2C(=O)NCc2ccccc2)cc1 returned CSC inhib -16, HIV Env fusion 25, UUG fidelity -12, MT1-MMP act inh 9 and MT1-MMP act inh RFP -6.
C[C@@H]1CN([C@@H](C)CO)C(=O)CCCn2nncc2CO[C@H]1CN(C)S(=O)(=O)c1ccccc1C#N was read as HIV Env fusion -18, UUG fidelity -10, MT1-MMP act inh 0 and MT1-MMP act inh RFP 6.
Nc1c(N(CCC2=CCCCC2)C(=O)Cc2ccc(F)cc2)c(=O)[nH]c(=O)n1Cc1ccccc1 was read as CSC inhib -8, HIV Env fusion -2, Rce1 inhib inactive, MT1-MMP act inh -7 and MT1-MMP act inh RFP -12.
`CO/N=C/c1ccc(N2CCN(C(=O)c3cccc(C(F)(F)F)c3)CC2)c([N+](=O)[O-])c1` gave HIV Env fusion 68*, eIF4H inh -11, Rce1 inhib inactive, UUG fidelity -8, MT1-MMP act inh 7, PABP polyA inh -5 and MT1-MMP act inh RFP -11.
For Cn1c(N)c(Br)c(-c2ccc(F)cc2)c(C#N)c1=O the results were CSC inhib -29, HIV Env fusion -5, eIF4H inh -3, Rce1 inhib inactive, MT1-MMP act inh 2, PABP polyA inh 1 and MT1-MMP act inh RFP -5.
For O=C(CCCCCCCCN1C(=O)c2ccccc2C1=O)N1CCOCC1 the results were CSC inhib 5, HIV Env fusion 9, eIF4H inh 2, Rce1 inhib inactive, UUG fidelity 6, MT1-MMP act inh 1, PABP polyA inh 1 and MT1-MMP act inh RFP -6.
For CC1CCN(CC(O)COCCOc2ccc(Br)cc2)CC1 (stereo unspecified) the results were CSC inhib 45, HIV Env fusion -3, eIF4H inh -19, Rce1 inhib inactive, UUG fidelity -6, MT1-MMP act inh 2, PABP polyA inh -1 and MT1-MMP act inh RFP 3.
For CN(c1nnc(N)s1)C1CCCCC1 the results were CSC inhib 14, HIV Env fusion 11, eIF4H inh 1, Rce1 inhib inactive, UUG fidelity -11, MT1-MMP act inh 0, PABP polyA inh 4 and MT1-MMP act inh RFP 5.
For O=C(Nc1cccc(S(=O)(=O)N2CCOCC2)c1)c1cc(S(=O)(=O)N2CCOCC2)c(Cl)cc1Cl the results were HIV Env fusion -3, UUG fidelity -29, MT1-MMP act inh -3 and MT1-MMP act inh RFP -5.
For COc1ccc(C2=NN(C(=O)c3ccc(Cl)c([N+](=O)[O-])c3)C(c3ccccc3)C2)cc1 (stereo unspecified) the results were CSC inhib 19, HIV Env fusion 19, eIF4H inh -3, Rce1 inhib inactive, MT1-MMP act inh 0, PABP polyA inh -3 and MT1-MMP act inh RFP -15.
`CN1CCN(c2ccc([N+](=O)[O-])cc2NC(=O)c2ccco2)CC1` gave HIV Env fusion -6, eIF4H inh -12, Rce1 inhib inactive, UUG fidelity -4, MT1-MMP act inh -2, PABP polyA inh -3 and MT1-MMP act inh RFP 0.

Retrieved by structure from the entries so far:
For Cn1c(N)c(Br)c(-c2ccc(F)cc2)c(C#N)c1=O the results were CSC inhib -29, HIV Env fusion -5, eIF4H inh -3, Rce1 inhib inactive, MT1-MMP act inh 2, PABP polyA inh 1 and MT1-MMP act inh RFP -5.
For CN(c1nnc(N)s1)C1CCCCC1 the results were CSC inhib 14, HIV Env fusion 11, eIF4H inh 1, Rce1 inhib inactive, UUG fidelity -11, MT1-MMP act inh 0, PABP polyA inh 4 and MT1-MMP act inh RFP 5.
For COc1ccc(C2=NN(C(=O)c3ccc(Cl)c([N+](=O)[O-])c3)C(c3ccccc3)C2)cc1 (stereo unspecified) the results were CSC inhib 19, HIV Env fusion 19, eIF4H inh -3, Rce1 inhib inactive, MT1-MMP act inh 0, PABP polyA inh -3 and MT1-MMP act inh RFP -15.
`CO/N=C/c1ccc(N2CCN(C(=O)c3cccc(C(F)(F)F)c3)CC2)c([N+](=O)[O-])c1` gave HIV Env fusion 68*, eIF4H inh -11, Rce1 inhib inactive, UUG fidelity -8, MT1-MMP act inh 7, PABP polyA inh -5 and MT1-MMP act inh RFP -11.

High-throughput results as filed in PubChem BioAssay.
